# Screening results: PubChem, National Center for Advancing Translational Sciences (NCATS)
# EPAC2 ant val: Validation qHTS for antagonist of cAMP-regulated guanine nucleotide exchange factor 4 (EPAC2) | Rap guanine nucleotide exchange factor 4 (Homo sapiens), Q8WZA2 | EPAC2 Rap1B BODIPY-GDP exchange, fluorescence | AID 1645886, 2021 | Potency, µM (titrated, usually from 112 µM), for the others: at the top dose activity, negative = inhibition, actives largely listed as inhibitors | 16,000 compounds, 1.7% hits; active = well fitted inhibition curve with a large enough effect; inconclusive = small, poorly fitted or top-dose-only effect; inactive = no such curve, though single readings can be large or run the other way;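 note: 100% = activation by cAMP agonist control; nearly all actives have a fitted effect of over 40% in size; the record reuses the description of the EPAC1 agonist screen; inactives centre near -10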
# Target sequence (Q8WZA2 whole entry, looked up): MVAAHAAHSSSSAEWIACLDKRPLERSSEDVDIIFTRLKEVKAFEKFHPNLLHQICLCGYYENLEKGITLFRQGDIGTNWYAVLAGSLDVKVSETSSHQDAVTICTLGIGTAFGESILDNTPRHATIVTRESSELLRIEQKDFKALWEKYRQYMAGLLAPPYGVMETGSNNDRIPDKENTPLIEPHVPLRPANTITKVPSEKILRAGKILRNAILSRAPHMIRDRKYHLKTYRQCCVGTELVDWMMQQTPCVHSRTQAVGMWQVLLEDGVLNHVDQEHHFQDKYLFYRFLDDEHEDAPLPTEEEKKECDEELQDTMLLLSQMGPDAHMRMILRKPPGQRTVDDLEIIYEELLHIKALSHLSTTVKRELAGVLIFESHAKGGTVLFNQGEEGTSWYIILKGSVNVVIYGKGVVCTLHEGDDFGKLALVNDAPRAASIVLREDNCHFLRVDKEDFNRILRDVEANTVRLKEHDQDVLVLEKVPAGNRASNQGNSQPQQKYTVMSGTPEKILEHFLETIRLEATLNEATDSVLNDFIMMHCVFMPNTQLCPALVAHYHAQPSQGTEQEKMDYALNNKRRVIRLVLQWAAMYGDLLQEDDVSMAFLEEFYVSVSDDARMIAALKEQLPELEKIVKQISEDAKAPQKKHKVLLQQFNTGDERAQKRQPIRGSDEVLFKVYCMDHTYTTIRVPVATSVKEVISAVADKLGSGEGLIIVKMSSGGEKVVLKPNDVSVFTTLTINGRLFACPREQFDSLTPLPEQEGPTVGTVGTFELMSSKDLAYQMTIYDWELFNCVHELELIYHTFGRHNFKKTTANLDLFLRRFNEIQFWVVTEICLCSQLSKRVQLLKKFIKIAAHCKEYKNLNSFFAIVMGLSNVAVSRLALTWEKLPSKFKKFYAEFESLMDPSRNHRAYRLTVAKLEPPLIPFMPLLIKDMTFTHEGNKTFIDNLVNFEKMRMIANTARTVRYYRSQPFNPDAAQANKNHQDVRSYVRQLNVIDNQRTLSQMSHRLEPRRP
#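 Fluorescent exchange read-out: 100 nM EPAC2 with 250 nM RAP1B–BODIPY-GDP and 50 uM GDP; BODIPY-GDP release lowers fluorescence. Read at 480/540 nm every 5 min for 30 min at room temperature; normalized to 6.5 mM cAMP.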
# * = called active by the depositor; ? = inconclusive; & = joins results of further samples; ! = not confirmed by another sample; [ ] = dose if it differs, or a comment. Potency is the fitted concentration of half-maximal effect. These rows are one share of the data (hit frequency here may not be typical).
molecule	EPAC2 ant val
O=C(NCCc1nnc2n1CCN(Cc1ccc3c(c1)CCO3)CC2)c1ccco1	2%
CC(C)(CO)NC(=O)c1cnn(-c2nccc(-c3ccc4c(c3)OCO4)n2)c1C1CC1	-10%
CC(=O)OCC(=O)[C@@]12N=C(C)O[C@@H]1C[C@H]1[C@@H]3CCC4=CC(=O)C=C[C@]4(C)[C@H]3[C@@H](O)C[C@@]12C	12%
COc1ccc2[nH]cc(CCNc3ncncc3-c3ccc(C(=O)N(C)C)cc3)c2c1	-30%
O=C(C[n+]1cc(Br)cc2ccccc21)c1ccc(Cl)cc1	?
Cc1nn(C)cc1CNc1nc(C)c(-c2ccn(CC3COc4ccccc4O3)n2)s1 (stereo not given)	?
Cc1cc(C(=O)O)ccc1[C@H](N)C(=O)O	?
c1cncc(CNc2cc(-c3ccc4c(c3)OCO4)ncn2)c1	-15%
COc1ccc(-n2c(=O)c(-c3ccc(Cl)cc3)nc3cnc(N4CCNCC4)nc32)cc1	-27%
Cc1cnc(CNc2ncnc3ccc(-c4cccc(NS(C)(=O)=O)c4)cc23)cn1	-14%
CCN(Cc1ccncc1)Cc1ccc2c(c1)CN(C(=O)c1ccccc1)CCO2	-1%
CN1CCCC(CNC(=O)c2cnn(-c3nccc(-c4cccs4)n3)c2C2CC2)C1 (stereo not given)	3%
CN1C2CCCC1CC(NC(=O)c1nn(C)c3ccccc13)C2 (stereo not given)	-3%
O=C(NCC1Cc2cccc(-c3ncccn3)c2O1)C1CCOC1 (stereo not given)	4%
Cc1cc2c(c(-c3nc4ccccc4s3)c1)OC(CNC(=O)CCc1cccnc1)C2 (stereo not given)	?
CCNc1ncc2nc(-c3ccccc3)c(=O)n(CCC#N)c2n1	-17%
Cc1cc(-c2cc(F)cc3c2OC(CNC(=O)[C@@H]2CCC(=O)N2)C3)ccc1F (stereo not given in full)	-6%
CSc1nc2cc(Oc3cccc(Cl)c3Cl)c(Cl)cc2[nH]1	?
CCCCCCCN1CCC(=O)N([C@H](CO)Cc2ccccc2)CC1	-35%
CCN(CC)C1CCN(C(=O)c2cnn(-c3ncc4c(n3)-c3ccccc3CCC4)c2COC)C1 (stereo not given)	-14%
C=C1/C(=C\C=C2/CCC[C@]3(C)C([C@H](C)CCCC(C)(C)O)CC[C@@H]23)C[C@@H](O)C[C@@H]1O (stereo not given in full)	-12%[11.4 µM]
COc1ncc2nc(-c3ccc(F)cc3)c(=O)n(-c3ccccc3)c2n1	-8%
Cc1ccccc1N=C1Nc2ccccc2N[C@]12C[C@H]1CCCC(=O)N3CC[C@@H](C2)[C@@H]13	5%
CCOc1ccccc1OCCN[C@H](C)Cc1ccc(OC)c(S(N)(=O)=O)c1	12%
Cc1cnc(C)c(-c2cccc3c2OC(CNC(=O)C2(c4ccc(Cl)cc4)CC2)C3)n1 (stereo not given)	?

# Ordered by heavy-atom count (falling): part of the list above.
molecule	EPAC2 ant val
COc1ccc2[nH]cc(CCNc3ncncc3-c3ccc(C(=O)N(C)C)cc3)c2c1	-30%
CCN(Cc1ccncc1)Cc1ccc2c(c1)CN(C(=O)c1ccccc1)CCO2	-1%
Cc1cc(-c2cc(F)cc3c2OC(CNC(=O)[C@@H]2CCC(=O)N2)C3)ccc1F (stereo not given in full)	-6%

# Carrying on.
molecule	EPAC2 ant val
CN(C)C(=O)c1ccc(-c2cncnc2NCc2cccs2)cc1	-22%
O=C(c1ccncc1)N1CCC[C@@]2(CCN(Cc3cc(C(F)(F)F)cc(C(F)(F)F)c3)C2)C1	?
CCN(CC)CCCC(C)Nc1c2ccc(Cl)cc2nc2ccc(OC)cc12 (stereo not given)	6%&148%&35%
CC1CNCCN1S(=O)(=O)c1cccc2cnccc12 (stereo not given)	-8%
Cc1oc(-c2ccccc2NC(=O)c2ccccn2)nc1CNC(=O)c1ccc(Oc2ccccc2)o1	-1%
COC(=O)c1ccc(CN2CCC3(CCC(CNC(=O)c4ccccc4)O3)CC2)cc1 (stereo not given)	10%
C=CCCCCCCCCCCCC(O)CC(O)COC(C)=O (stereo not given)	?
CC(C)CCCC(C)C1CCC2C3CC(=O)[C@H]4CC(O)CC[C@]4(C)C3CC[C@@]12C (stereo not given in full)	-8%
CC(=O)N=c1sc(S(N)(=O)=O)nn1C	-12%[56.6 µM]
Cn1c(CCNC(=O)C2CC23CCN(C(=O)C2=CCCC2)CC3)nc2ccccc21 (stereo not given)	-13%
CN(C)c1ncc2nc(-c3cc(F)cc(F)c3)c(=O)n(C)c2n1	-19%
CC[C@@]1(O)C(=O)OCc2c1cc1n(c2=O)Cc2cc3cc(O)ccc3nc2-1	23%&-12%
O=C1/C(=C/c2ccsc2)CC/C1=C\c1cccs1	7%
CCNc1ncc2ncc(=O)n(Cc3cccc(OC)c3)c2n1	?
COC(=O)c1cccc(C(=O)NCc2nc(-c3cccc(NC(=O)c4ccoc4C)c3)oc2C)c1	-3%
COc1ccc(/C=C/C(=O)NCC2Cc3cccc(-c4nc(C)cnc4C)c3O2)cc1OC (stereo not given)	3%
CC(C)(C)NCC(O)COc1cccc2[nH]c(=O)[nH]c12 (stereo not given)	-12%&-12%
Cc1sc(N)c(C(=O)c2cccc(C(F)(F)F)c2)c1C	56µM*
COCCn1c(=O)c(-c2cccs2)nc2cnc(Nc3ccccc3)nc21	71%[activator]
Nc1ccc(S(=O)(=O)Nc2ccnn2-c2ccccc2)cc1	11%
c1ccc2[nH]ccc2c1	12%
CN1CCN(c2nc(-c3ccc(N(C)C)cc3)nc3ccccc23)CC1	-4%
Cc1noc(C)c1-c1ccc2ncnc(NCc3ccccc3)c2c1	?
COCCn1c(=O)c(CCc2ccccc2)nc2cnc(OC)nc21	-12%
CC[C@H](C)[C@@H]1NC(=O)[C@H](Cc2ccc(O)cc2)NC(=O)[C@@H](N)CSSC[C@@H](C(=O)N2CCC[C@H]2C(=O)N[C@@H](CC(C)C)C(=O)NCC(N)=O)NC(=O)[C@H](CC(N)=O)NC(=O)[C@H](CCC(N)=O)NC1=O	12%

# (next part)
molecule	EPAC2 ant val
COc1cccc(-c2cc(NCc3cnc(C)cn3)ncn2)c1	-17%
COc1cc(N(C)C)c(OC)cc1C=O	?
COc1cccc(Cn2c(=O)c(-c3ccc(F)cc3)nc3cnc(N4CCOCC4)nc32)c1	-24%
O=c1c(O)c(-c2ccc(O)cc2)oc2cc(O)ccc12	-24%
O=C(/C=C/c1ccc(O)c(O)c1)O[C@H]1C[C@@](O)(C(=O)O)CC(O)C1O (stereo not given in full)	-2%
Cc1noc(C)c1C(=O)N1CCC2(CCN(Cc3cc(C(F)(F)F)cc(C(F)(F)F)c3)CC2)CC1	-45%
CC(C)CN1CCC(=O)N([C@H](CSc2ccccc2)Cc2ccccc2)CC1	?
CNc1ncnc2c1ncn2[C@H]1C[C@H](OP(=O)(O)O)[C@H](COP(=O)(O)O)O1	-17%
CCCCCCCCCCCCCCCC(=O)OCC(COP(=O)(O)O)OC(=O)CCCCCCCCCCCCCCC (stereo not given)	-4%[11.4 µM]
COCCn1c(=O)c(-c2cn(C)c3ccccc23)nc2cnc(OCc3ccccc3)nc21	27%
COC(=O)[C@@H](CC(C)C)NS(=O)(=O)N(Cc1ccccc1)[C@@H](CC(C)C)C(=O)OC	?
COCC(=O)N1CCC2(CCCN(c3ncccn3)C2)CC1	-16%
COc1cc(=O)n2c(c1C(=O)N(C)Cc1nonc1C)CCN(C(=O)c1cccc(C)c1C)CC2	-11%
COc1cccc(Cn2c(=O)c(-c3ccccc3)nc3cnc(N(C)C)nc32)c1	-11%
N#CCCn1c(=O)c(-c2cccs2)nc2cnc(Nc3ccccc3)nc21	6%
Nc1nc2[nH]c(=O)[nH]c2c(=O)[nH]1	-4%
COc1cc(NC(C)CCCN)c2ncccc2c1 (stereo not given)	-7%
CS(=O)(=O)N1CCC[C@@]2(CCN(c3ccccn3)C2)C1	-17%
O=C(NCc1nnc2n1CCN(Cc1cc(F)cc(F)c1)CC2)c1cccc(F)c1	-25%
CN1CCN(c2nc(-c3cccnc3)nc3ccccc23)CC1	-7%
O=C1C[C@@H]2c3c(cccc3CN1Cc1ccc(Cl)cc1)C[C@@H](O)[C@H]2O	-22%
CCC1COCCS(=O)(=O)N1Cc1ccccc1F (stereo not given)	?
O=C([C@@H]1C[C@@H](Sc2nc3ccccc3[nH]2)CN1CC1CCCCC1)N1CCOCC1	3%
COc1ccccc1-c1nc(N2CCN(C)CC2)c2ccccc2n1	-13%
Cc1ccccc1-c1cc(NCCN2CCOCC2)ncn1	-12%

# Later entries.
molecule	EPAC2 ant val
N#Cc1cc([N+](=O)[O-])c2sc(C(N)=O)[n+]([O-])c2c1	-9%
O=c1c(-c2ccc(Cl)cc2)nc2cnc(Oc3ccccc3)nc2n1C1CC1	-16%
O=c1c(-c2ccccc2)nc2cnc(N3CCOCC3)nc2n1Cc1ccc(F)cc1	18%
Cn1ncc(S(=O)(=O)Cc2ccccc2)c(Br)c1=O	-7%
COCCn1c(=O)c(-c2ccccc2)nc2cnc(Oc3ccccc3)nc21	?
CN(C)c1ccc(O)c2c1C[C@H]1C[C@H]3[C@H](N(C)C)C(=O)C(C(N)=O)=C(O)[C@@]3(O)C(=O)C1=C2O	-9%&39%&17%
COCCn1c(=O)c(-c2ccc(OC)cc2)nc2cnc(OC)nc21	-30%
Cc1ccc(C(=O)c2cc(O)c(O)c([N+](=O)[O-])c2)cc1	-5%
CN1CCN(c2ncc3nc(-c4cccc(C#N)c4)c(=O)n(C[C@H]4CCCO4)c3n2)CC1	7%
O=S(=O)(c1ccccc1)N1CCC[C@@]2(CCN(c3ncccn3)C2)C1	-14%
COc1ccc(C[C@H](C)NC[C@@H](O)c2ccc(O)c(NC=O)c2)cc1	-27%
COc1ccc(Oc2ncc3nc(-c4ccc(OC)cc4)c(=O)n(CCC#N)c3n2)cc1	-11%
COc1cc(=O)n2c(c1C(=O)NCc1ccco1)CCN(Cc1cccc(C)n1)CC2	?
CO[C@H]1[C@H](NC(=O)c2ccco2)c2ccccc2C12CCN(Cc1cnn(-c3ccccc3)c1)CC2	-25%
CN(C)c1cc2c(Nc3ccc4c(cnn4Cc4ccccc4)c3)ncnc2cn1	?
C=C1C(N)CC2CC1C2(C)C (stereo not given)	-1%
O=c1c(-c2cccc(Cl)c2)nc2cncnc2n1Cc1ccccc1Cl	-20%
Cc1ccc(C(=O)[C@@H]2[C@H]3C4COC(O4)C(=O)[C@@H]3[C@H]3C=Cc4ccccc4N32)cc1 (stereo not given in full)	-16%
CC(CN1c2ccccc2Sc2cccnc21)N(C)C (stereo not given)	16%
CC(C)NC(=O)N1CCCC2(CCN(C(=O)c3csnn3)CC2)C1	-5%
CC(C)CN1CCC2(CC1)CCN(C(=O)c1cccc(F)c1)CC2	-10%
C=C(C)C(=O)OC[C@@H]1CCC[N@+]2(C)CCCCC12 (stereo not given in full)	-10%
CN(C)C(=O)c1ccc(-c2nc(N(C)C)c3ccccc3n2)cc1	-10%
N[C@@H](C(=O)O)c1ccc(C(=O)O)c(O)c1	?
CC(=O)OCC(=O)[C@H]1CC[C@H]2[C@@H]3CCC4=CC(=O)CC[C@]4(C)[C@H]3CC[C@]12C	-32%

# The results go on.
molecule	EPAC2 ant val
COc1ccc(NC(=O)N2CCCC3(CCN(C(=O)c4cccc(F)c4)CC3)C2)cc1	-23%
CN(CC[C@@H](Oc1ccc(-c2ccccc2)cc1)c1ccc(F)cc1)CC(=O)O	-17%
CC[N+](CC)(CC)CCC(O)(c1ccccc1)C1CCCCC1 (stereo not given)	-3%[56.6 µM]
COc1cc2nc(N(C)C)c(CNCc3cccc4ccccc34)cc2c(OC)c1OC	5%
CN1CCCN(C(=O)[C@@H]2C[C@@H](Sc3nc4ccccc4[nH]3)CN2Cc2ccc(-c3ccccc3)cc2)CC1	4%
CC1=C(C)C(=O)C(CCCCC#CCCCC#CCO)=C(C)C1=O	-3%&-27%
Cc1ccc(CN2CCOc3ccc(CN4CCC(Oc5cccnc5)CC4)cc3C2)o1	-9%
O=C(c1csnn1)N1CCC2(CC1)CN(c1ccccn1)C2	-2%
COc1ccc(-c2nc3cnc(Nc4cccc(OC)c4)nc3n(C3CC3)c2=O)cc1	-27%
CCCCCCCCCCCCCc1ccco1	-7%
O=C(NCCN1CCCCC1)c1ccc(I)cc1	-25%&-11%
CC(N)(Cc1ccc(O)c(O)c1)C(=O)O (stereo not given)	21%
COc1cccc2c(=O)c3ccccc3oc12	18%
CC(C)(C)C1CCC(=O)N(CCSc2ccccc2)CC1 (stereo not given)	-46%
COC(=O)C1=C(C)NC(C)=C([N+](=O)[O-])C1c1ccccc1C(F)(F)F (stereo not given)	40µM*!
COc1cccc(CC(=O)NCC2Cc3cc(Cl)cc(-c4ncccn4)c3O2)c1 (stereo not given)	-11%

# An excerpt of these results, field by field:
molecule: CN1CCCN(C(=O)[C@@H]2C[C@@H](Sc3nc4ccccc4[nH]3)CN2Cc2ccc(-c3ccccc3)cc2)CC1
  EPAC2 ant val = 4%
molecule: CC1=C(C)C(=O)C(CCCCC#CCCCC#CCO)=C(C)C1=O
  EPAC2 ant val = -3%&-27%
molecule: Cc1ccc(CN2CCOc3ccc(CN4CCC(Oc5cccnc5)CC4)cc3C2)o1
  EPAC2 ant val = -9%
molecule: O=C(c1csnn1)N1CCC2(CC1)CN(c1ccccn1)C2
  EPAC2 ant val = -2%
